Measles inh: inhibitors of measles virus growth in infected cells; infected Vero cells, GFP fluorescence, 64 h; stronger effect = lower value; z-score (test concentration not listed); hit rate 0.1% among 33,000; AID 745;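 active means z-score under -3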;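 further: score is relative to mean and SD of the compound wells of a plate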
Starred values were filed as active, the others as inactive. Not all compounds are listed (hit frequency here may not be typical).

no.	Measles inh	Molecule
1	1.5	CC(=O)NCc1nc2ccccc2[nH]1
2	1	COc1ccc(CNC(=O)c2ccc3c(c2)NC(=O)CS3)cc1
3	-0.83	CCOC(=O)C1CCCN(C(=O)c2ccc(C(C)(C)C)cc2)C1 (stereo unspecified)
4	1.2	Cc1cccc(NC(=O)CSc2nc(-c3ccc(F)cc3)cc(C(F)(F)F)c2C#N)c1
5	-0.01	CN1C(=O)c2cccc3c(Cl)ccc(c23)C1=O
6	-1	CCOCCOC(=O)C1=C(C)NC2=C(C(=O)CC(c3cccs3)C2)C1c1ccc2c(c1)OCO2 (stereo unspecified)
7	-0.39	Cn1c(=O)c2c(nc(NCCCO)n2C)n(C)c1=O
8	-0.41	N#Cc1cnn(-c2ccccc2)c1NC(=O)c1ccccc1F
9	-1.2	COc1ccc2nc(NC(=O)C3CCN(S(=O)(=O)c4c(C)noc4C)CC3)sc2c1
10	-0.7	CC1(C)CC(=O)c2cc3c(N)c(C(=O)Nc4ccc(Cl)cc4)sc3nc2C1
11	-0.44	CC(C)CCOC(=O)c1ccc(NC(=O)c2ccccc2)cc1
12	-0.63	CCSc1nnc2c(n1)OC(c1cccn1C(C)=O)N(C(C)=O)c1ccccc1-2 (stereo unspecified)

3 compounds from above, sorted by the number in Measles inh, rising.
nr | smiles | Measles inh
3 | CCOC(=O)C1CCCN(C(=O)c2ccc(C(C)(C)C)cc2)C1 (stereo unspecified) | -0.83
2 | COc1ccc(CNC(=O)c2ccc3c(c2)NC(=O)CS3)cc1 | 1
1 | CC(=O)NCc1nc2ccccc2[nH]1 | 1.5

An excerpt from above in order of heavy-atom count, lowest first:
no.	Measles inh	Molecule
1	1.5	CC(=O)NCc1nc2ccccc2[nH]1
7	-0.39	Cn1c(=O)c2c(nc(NCCCO)n2C)n(C)c1=O
8	-0.41	N#Cc1cnn(-c2ccccc2)c1NC(=O)c1ccccc1F
9	-1.2	COc1ccc2nc(NC(=O)C3CCN(S(=O)(=O)c4c(C)noc4C)CC3)sc2c1

From PubChem BioAssay
